Screening results deposited in PubChem by ICCB-Longwood Screening Facility, Harvard Medical School.
GIV Gai3 FP – GIV-Galpha-i interaction inhibition | Galpha-i3/FITC-GIV peptide fluorescence polarization, 90 min; stronger effect = lower value; scaled: aluminum fluoride 0%, vehicle 100% | AID 1224905 | percent of control (FP), % (no concentration beside the values) | 210,000 tested, 0.42% active;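 active = replicate mean at 85% of control or lower, very high polarization wells dropped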;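 note: wells of about 15 µL received 100 nL stock; the first replicate is given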
Target sequence (P08753 whole entry, looked up): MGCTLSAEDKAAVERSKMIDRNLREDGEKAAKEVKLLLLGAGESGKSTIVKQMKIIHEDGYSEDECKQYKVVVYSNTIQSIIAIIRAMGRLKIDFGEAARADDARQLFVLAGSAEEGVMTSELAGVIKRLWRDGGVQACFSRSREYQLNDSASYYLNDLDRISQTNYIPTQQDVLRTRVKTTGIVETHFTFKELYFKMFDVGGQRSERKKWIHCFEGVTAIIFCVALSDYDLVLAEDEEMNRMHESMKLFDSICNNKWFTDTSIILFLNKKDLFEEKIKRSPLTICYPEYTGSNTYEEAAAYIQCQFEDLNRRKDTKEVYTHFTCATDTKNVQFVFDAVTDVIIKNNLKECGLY
Sa growth inh – inhibitors of Staphylococcus aureus growth at 42 °C. S. aureus RN4220 growth, OD600, 20 h; stronger effect = lower value. relative growth, % (concentration not given with the values). 170,000 tested, 0.53% active;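 active = growth at 42 °C up to 50% and 20 or more points under that at 30 °C, or under 10% at both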;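 note: 300 nL library stock went into each well; scaled to the means of positive and negative controls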
Sa growth inh second temp – further read-out of Sa growth inh, marked with its call; relative growth, %; measured here: growth at 30 °C;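 optical density after 20 h as mean of two plates; 100% = untreated growth and lower means inhibition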
The depositor's hits bear a star; . = no result given. This is a subset; rates above refer to the full screens.

Below each compound: GIV Gai3 FP	Sa growth inh	Sa growth inh second temp
CC(C)c1c(C#N)c(N)nc(SCC(=O)c2cc3ccccc3oc2=O)c1C#N
  .	87	88
c1ccc(C2=NNC(=NCC3CCCO3)SC2)cc1 (centres undefined)
  .	110	94
CCOC(=O)O[C@]1(C(=O)OCCl)CC[C@H]2[C@@H]3CCC4=CC(=O)C=C[C@]4(C)[C@H]3[C@@H](O)C[C@@]21C
  .	88	75
C=CCNc1nc(C(=O)O)cs1
  .	105	93
COc1ccc(C2SCCN2S(C)(=O)=O)cc1OC (centres undefined)
  .	94	92
CN(Cc1ccccc1Cl)C(=O)c1ccc(O)c(Cl)c1
  .	118	96
c1nc(NCCc2ccc3c(c2)OCCO3)c2ccsc2n1
  .	101	91
CC(=O)OC1C([N+]2(C)CCCCC2)C[C@H]2C3CC[C@H]4C[C@H](OC(C)=O)C([N+]5(C)CCCCC5)CC4(C)[C@H]3CCC12C (some centres undefined)
  .	96	85
C1=C(c2ccccc2)Nc2ncnn2C1c1ccco1 (centres undefined)
  .	103	84
CN(CC(=O)NCCc1ccc(F)cc1)Cc1ccccc1
  .	100	95
COc1ccc(CNC(=O)C2=CC=CN3CCS(=O)(=O)N=C23)cc1
  .	108	99
Cc1cc(SCC(=O)NC2CCS(=O)(=O)C2)nc2ccccc12 (centres undefined)
  .	113	98
COc1ccc(-c2onc(C(F)(F)F)c2-c2cnn(-c3ccccc3)c2)c(O)c1
  .	36	34
Cc1conc1NC(c1cccs1)c1ccc2cccnc2c1O (centres undefined)
  .	3.1*	1.8*
N[C@@H](C(=O)N[C@@H]1C(=O)N2C(C(=O)O)=C(CSc3cn[nH]n3)CS[C@H]12)c1ccc(O)cc1 (tested in a mixture with another compound)
  .	27*	63*
CC1CCN(Cn2cnc3ccccc3c2=O)CC1
  .	92	89
O=C1c2cccc3c2[C@H](CCC3)CN1[C@@H]1CN2CCC1CC2
  .	92	82
CCOC(=O)C1CCCN(CC(=O)Nc2c(F)c(F)c(F)c(F)c2F)C1 (centres undefined)
  .	89	90
CCOC(=O)c1cc2c(=O)n3cccc(C)c3nc2n(C(C)C)c1=NC(=O)c1ccc2c(c1)OCO2
  .	89	90
CCOC(=O)c1sc2cccc(F)c2c1CSc1nnc(SCc2ccc(C(=O)OC)o2)s1
  .	116	92
CC(=O)NCc1ccc(C(=O)CSc2nnc(-c3cccc(C)c3)n2-c2ccc(C)cc2)o1
  .	98	88
CC(Sc1nncn1C)C(=O)N(C)c1ccccc1 (centres undefined)
  .	101	89
NC(=O)n1c(CCC(=O)O)nc2sc3c(c2c1=O)CCC3
  .	90	81
O=C1[C@H](CC[C@H](O)c2ccc(F)cc2)[C@@H](c2ccc(O)cc2)N1c1ccc(F)cc1
  .	74	55
CO[C@H]1O[C@@H]2O[C@@]3(C)CC[C@H]4[C@H](C)CC[C@@H]([C@H]1C)[C@@]24OO3
  .	87	82
CCn1cc(C(=O)OCC(=O)OC2CC(C)CCC2C(C)C)c(=O)c2ccc(C)nc21 (centres undefined)
  .	71	82
Nc1nc(Cl)nc2c1ncn2[C@@H]1O[C@H](CO)[C@@H](O)[C@H]1O
  .	93	82
N#Cc1ccc(CSCCN2C(=O)c3ccccc3C2=O)cc1
  .	85	88
C=CCNCC(=O)NC12CC3CC(CC(C3)C1)C2
  .	107	88
CCCn1c(=NC(=O)c2ccccc2)c(C#N)cc2c(=O)n3cccc(C)c3nc21
  .	93	93
COC(=O)CNC(=O)c1coc2ccccc2c1=O
  .	90	88
CCOC(=O)c1oc2ccccc2c1CN1CCSC1=Nc1ccc(OC)cc1
  .	120	96
CCCCN1Cc2c(sc(C)c2C)N(C(=O)c2ccccc2)C1
  .	96	91
CC(NC=O)c1nc2ccccc2n1C (centres undefined)
  .	95	93
COc1cc(OC)c(NC(=O)Nc2cccc(-c3nnc(-c4ccccc4)o3)c2)cc1Cl
  102	.	.
COc1cccc(C2Oc3ccc(Cl)cc3C3CC(c4ccco4)=NN32)c1 (centres undefined)
  118	.	.
Cc1cc2c(cc1C)NC1(CCCCCC1)C(=NCCC(C)C)N2
  102	.	.
CCN1CCN(S(=O)(=O)c2ccc3c(c2)N(Cc2noc(C4CCC4)n2)C(=O)CO3)CC1
  106	.	.
O=C(NCc1ccco1)/C(=C/c1ccccc1)NC(=O)c1ccc(Br)cc1
  109	.	.
Cc1cccc2sc(NC(=O)Cn3c(=O)c4ccccc4n(C)c3=O)nc12
  107	.	.

Results in Sa growth inh second temp, for four of the compounds above:
structure,Sa growth inh second temp
Cc1conc1NC(c1cccs1)c1ccc2cccnc2c1O (centres undefined),1.8*
N[C@@H](C(=O)N[C@@H]1C(=O)N2C(C(=O)O)=C(CSc3cn[nH]n3)CS[C@H]12)c1ccc(O)cc1 (tested in a mixture with another compound),63*
CC1CCN(Cn2cnc3ccccc3c2=O)CC1,89
O=C1c2cccc3c2[C@H](CCC3)CN1[C@@H]1CN2CCC1CC2,82

Next records.
Below each compound: GIV Gai3 FP	Sa growth inh	Sa growth inh second temp
C=CCNC(=O)NC1CCN(C2=NS(=O)(=O)C(c3ccccc3)=C2C)CC1
  103	.	.
Cc1ccc(S(=O)(=O)CC(=O)Nc2nc(-c3ccc4c(c3)OCCO4)cs2)cc1
  110	.	.
COC(=O)C12CC3CC(CC(O)(C3)C1)C2
  103	.	.
CC(C)NC(=O)c1nsc(C(=O)N2CCC3(CC2)OCCO3)c1N
  102	.	.
N#Cc1c2n(c3c(=O)n(Cc4ccc(Cl)cc4)cnc13)CCCC2
  107	.	.
COC(=O)C1=C(N)OC2=C(C(=O)CC(C)(C)C2)C1c1ccccc1F (centres undefined)
  101	.	.
CCOC(=O)CSc1nc2cc(C(=O)Nc3ccc(OC)c(OC)c3)ccc2c(=O)n1-c1ccccc1
  104	.	.
COc1cccc(C(=O)Nc2cccc(-c3ccc4ccccc4n3)c2)c1
  103	.	.
COc1ccc2c(c1)C=CC1(O2)N(c2ccccc2)c2ccccc2C1(C)C (centres undefined)
  105	.	.
O=C(NCCc1csc(C2CCN(C(=O)C3CCC3)CC2)n1)C1CCC1
  96	.	.
COc1cc([N+](=O)[O-])ccc1-c1ccc(/C=N/c2c(-c3ccco3)nc3ccccn23)o1
  103	.	.
CC(C)NC(=O)c1ccc(-c2nc3cc(NS(=O)(=O)c4ccc(F)cc4F)ccc3n2C)cc1
  101	.	.
CC(C)CCCC(C)C1CCC2C3CC=C4CC(OC(=O)C56CC7CC(CC(C7)C5)C6)CCC4(C)C3CCC12C (centres undefined)
  108	.	.
CCOC(=O)c1cnc2ccc(C)cc2c1Nc1ccc(C)cc1
  102	.	.
CCN1C(=O)CC(C(=O)Nc2ccc(C(=O)O)cc2)SC1=Nc1ccc2c(c1)OCO2 (centres undefined)
  109	.	.
COc1ccc(OC)c(N=c2ssc3c2-c2cc(OC)ccc2NC3(C)C)c1
  117	.	.
CCSCCOC(=O)C1=C(C)NC2=C(C(=O)CC(c3cccs3)C2)C1c1ccc(OC(C)=O)cc1 (centres undefined)
  115	.	.
CC(=O)N1CC(C)Oc2ccc(S(=O)(=O)N3CCN(Cc4noc5ccccc45)CC3)cc21 (centres undefined)
  99	.	.
Nc1c(C(=O)Nc2nccs2)sc2nc3c(c(-c4cccs4)c12)CCCCC3
  114	.	.
O=C(Nc1ccc2c(c1)OCO2)c1nc2nc(-c3ccc(F)cc3)cc(C(F)(F)F)n2n1
  105	.	.
Cc1c(C(=O)Nc2ccccc2C(F)(F)F)sc2nc(SCc3cccc(Cl)c3)n(Cc3ccccc3)c(=O)c12
  107	.	.
COc1cccc(-c2ccc(=O)n(CCc3nc(-c4cccc(OC)c4OC)no3)n2)c1
  101	.	.
O=S(=O)(Nc1ccc(-c2noc(CCC3CCCC3)n2)cc1)c1cccs1
  109	.	.
COc1ccccc1C(=O)N1CCCC(c2nc(-c3ccc(NC(C)=O)cc3)no2)C1 (centres undefined)
  107	.	.
Cc1noc(C)c1S(=O)(=O)N1CCC(C(C)C(=O)N2CCCC2)CC1 (centres undefined)
  105	.	.
OCCNc1nc(Nc2ccc(Cl)cc2)nc(N2CCOCC2)n1
  108	.	.
Clc1ccc(C(=C2CN3CCC2CC3)c2ccc(Cl)s2)s1
  110	.	.
CCOC(=O)c1sc2nc(SCc3cc(F)ccc3F)n(CCCN3CCCC3=O)c(=O)c2c1C
  104	.	.
COc1ccc(C2(O)CN(c3cc(C)ccc3C)C3=[N+]2CCCS3)c(F)c1 (centres undefined)
  105	.	.
Cc1[nH]c(C)c(S(=O)(=O)N2CCCCCC2)c1-c1nc(C2CC2)no1
  106	.	.
Cc1cccc(N2CCN(C(=O)c3cccc(N4C(=O)C5CC=CCC5C4=O)c3)CC2C)c1 (centres undefined)
  103	.	.
CC(C)(C)c1csc(-c2csc(S(=O)(=O)N3CCCCCC3)c2)n1
  105	.	.
Cn1c(=O)c2nc(SCCC(=O)NC3CCc4ccccc43)n(C)c2n(C)c1=O (centres undefined)
  106	.	.
COCCNC(=O)c1ccc2c(=O)n(Cc3ccco3)c(SCc3cc(=O)n4ccccc4n3)nc2c1
  113	.	.
CCS(=O)(=O)N1CCCN(C(=O)NC(C)C)CC1
  98	.	.
O=C1C=C(/C=C/c2cccs2)C[C@H](c2cccs2)[C@H]1n1nnc2ccccc21
  106	.	.
C/C=C/N1C(=S)NC2(O)c3ccccc3C(=O)C12O (centres undefined)
  103	.	.
Cc1cc(N(C)C)nc(N2CCN(S(=O)(=O)c3ccc(Br)cc3)CC2)n1
  97	.	.
COc1ccc(NC(=O)Nc2ccc(Sc3cc(C)nc4ncnn34)cc2)cc1OC
  100	.	.
COc1nc(NCCN2CCOCC2)nc(Nc2ccccc2)n1
  101	.	.
CC(C)(C)C(=O)N1CCCC(c2ccnc(-c3ccc(F)cc3)n2)C1 (centres undefined)
  101	.	.
Cc1ccc(C)c(N2CCN(S(=O)(=O)c3cc(-c4cc(C)no4)cs3)CC2)c1
  109	.	.
CCOc1cc(-c2nc3sc4c(c3c(=O)[nH]2)CCCC4)ccc1OCCOc1ccc(C)c(C)c1
  102	.	.
COCc1cc(=O)n2c(n1)N(CC1CC1)CC2
  103	.	.
CC(=O)C1(C)CC2(CC(C)(C)OC2=O)C(=O)O1 (centres undefined)
  111	.	.
Cc1nc(-c2cc(S(=O)(=O)N3CCN(c4cccc(Cl)c4)CC3)c(C)s2)sc1C
  99	.	.
O=C(CN1C(=O)C2(OCCO2)c2ccccc21)c1ccccc1C(F)(F)F
  102	.	.
c1ccc(CNP2(NCc3ccccc3)=NP(NCc3ccccc3)(NCc3ccccc3)=NP(NCc3ccccc3)(NCc3ccccc3)=N2)cc1
  121	.	.
O=C(NCc1ccncc1)C1CCN(c2ncnc3c2oc2ccccc23)CC1
  105	.	.
CCc1onc(C)c1C1CCCN1Cc1ccc(OC)c(O)c1 (centres undefined)
  102	.	.
CCN1C(=O)/C(=c2/s/c(=C\C=C3\Sc4ccc(OC)cc4N3CC)c(=O)n2CC)SC1=S
  108	.	.
Cc1nnc2ccc(-n3ncc4c3NC(=O)CC4c3ccccc3OC(C)C)nn12 (centres undefined)
  101	.	.
COc1ccc(CCNC(=O)CCCn2c(SCC(=O)Nc3ccc(C)cc3)nc3ccccc3c2=O)cc1OC
  110	.	.
CCc1ccccc1NC(=O)Cn1cc(-c2nc(-c3ccc(Cl)cc3)no2)c(=O)c2ccc(C)nc21
  173	.	.
O=C(CSc1nnc(-c2cc3ccccc3o2)n1-c1ccccc1)N1CCCCC1
  106	.	.
O=c1ccc2cc(S(=O)(=O)N(CCc3ccncc3)CC3CCCO3)ccc2[nH]1 (centres undefined)
  103	.	.
O=C(NC1CCCCC1)C1CCN(c2cnc(N3CCCC3)nc2)CC1
  97	.	.
N#CC(C#N)=C1NC2(CCCCC2)Cc2ccccc21
  110	.	.
O=C(Cn1nc2c3scc(-c4ccc(F)cc4)c3ncn2c1=O)NCc1ccc(F)cc1
  96	.	.
CC(C)c1cc(C2CCCN2S(=O)(=O)c2cccc3nsnc23)on1 (centres undefined)
  106	.	.

The list goes on:
Below each compound: GIV Gai3 FP	Sa growth inh	Sa growth inh second temp
O=C1Nc2ccccc2Oc2ccc(S(=O)(=O)N3CCSCC3)cc21
  101	.	.
Cc1cc(C)n(-c2nnc(C)n2/N=C/c2ccc(N(C)C)cc2)n1
  109	.	.
CCOC(=O)CNC(=O)N1CCC2(CC1)Nc1cc(F)ccc1-n1cccc12
  104	.	.
COc1cc(C2=N/C(=C\c3cc(Br)cs3)C(=O)O2)cc(OC)c1OC
  108	.	.
CCc1cccc2c1NC(C)(C)c1sn(-c3ccc(C)cc3)c(=S)c1-2
  106	.	.
COc1ccc(-c2nc3c4c(-c5ccc(OC)cc5)c(-c5ccc(OC)cc5)oc4ncn3n2)cc1
  122	.	.
COc1ccc(NC(=O)c2nnc(C3CCN(C(=O)Nc4cc(C)ccc4C)CC3)s2)cc1
  101	.	.
COc1ccc(-n2c(SCC(=O)Nc3ccc(OC)cc3OC)nc3n[nH]c(C)c3c2=N)cc1
  103	.	.
CC1=C(C(=O)Nc2cccc(F)c2)C(c2ccccn2)C2=C(CC(C)(C)CC2=O)N1 (centres undefined)
  100	.	.
O=C(NN1C(=O)c2cc([N+](=O)[O-])cc3cc([N+](=O)[O-])cc(c23)C1=O)c1ccc([N+](=O)[O-])cc1
  101	.	.
O=C(CSc1nc2cc(C(=O)NCCCN3CCCCC3)ccc2c(=O)n1CC1CCCO1)c1ccccc1 (centres undefined)
  118	.	.
